Screening results: PubChem, National Center for Advancing Translational Sciences (NCATS)
SARS PLpro yeast: blocks SARS-CoV papain-like protease in a yeast assay | Potency, µM (series often up to 32.9 µM), without a hit: top-dose activity, positive = growth rescue | hit rate 0.19% among 330,000 | S. cerevisiae expressing SARS-CoV PLpro, growth rescue; control for the full effect not named in the record; active means well fitted rising curve with a large enough effect; inconclusive means small, poorly fitted or top-dose-only effect; inactive means no such curve, though single readings can be large or run the other way; further: 0% is about no effect; nearly all actives have a fitted effect of over 55% in size; growth read by luminescence after 48 h
Cruzain inh Det: inhibitors of Trypanosoma cruzi cruzain with detergent | P25779 | purified cruzain, Z-FR-AMC fluorescence, 0.01% Triton | Potency, µM, for the others: max response, negative = inhibition, hits mostly inhibitors | hit rate 0.43% among 200,000;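 further: plate controls were neutral wells for no effect and buffer without enzyme for full effect; nearly all actives have a fitted effect of over 40% in size; top concentration of the series not given in the record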
Target sequence (P25779 123-467 limits assumed): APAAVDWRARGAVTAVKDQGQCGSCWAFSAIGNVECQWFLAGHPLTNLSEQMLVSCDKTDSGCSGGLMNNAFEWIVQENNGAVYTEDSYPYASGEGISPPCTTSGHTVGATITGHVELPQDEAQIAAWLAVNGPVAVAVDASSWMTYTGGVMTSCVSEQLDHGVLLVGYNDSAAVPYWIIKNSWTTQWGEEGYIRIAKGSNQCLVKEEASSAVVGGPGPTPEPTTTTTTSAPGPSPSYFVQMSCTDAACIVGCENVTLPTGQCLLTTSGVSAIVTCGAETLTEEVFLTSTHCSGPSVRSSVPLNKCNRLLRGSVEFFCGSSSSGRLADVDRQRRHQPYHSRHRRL
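Read-out: AMC fluorescence (360 nm excitation, 450 nm emission), four reads over 2 min, first-to-third difference used. Conditions: cruzain 1.5 nM, Z-FR-AMC 2 uM, pH 5.5 acetate, 5 mM DTT, 0.01% Triton X-100.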
Marburg entry inh: Marburg virus entry inhibition. hit rate 1.8% among 300,000. Marburg virus pseudotyped entry inhibition, cell reporter; control for the full effect not named in the record; about a third of the inactives were read at about 46 µM. AID 540276. Potency, µM (titrated, usually from 37.8 µM), without a hit: at the top dose activity change, negative = inhibition, actives largely listed as inhibitors; active = well fitted inhibition curve with a large enough effect; inconclusive = small, poorly fitted or top-dose-only effect, or effect the other way; inactive = flat fitted curve, though single readings scatter; tested in HEK293 cells; about a fifth of its hits are not listed in these tables; further: on the % scale 0 is the no-effect control and ±100 the full control effect; luciferase read-out
RE007 growth inh: less growth of the S. pombe RE007 Vpr strain | S. pombe RE007 Vpr strain, BacTiter-Glo ATP luminescence, 24 h; control for the full effect not named in the record | Potency, µM (titrated, usually from 92.2 µM), inactives show at the highest dose activity change, negative = less growth | hit rate 0.21% among 360,000; active = well fitted falling curve with a large enough effect; inconclusive = small, poorly fitted or top-dose-only effect; inactive = no such curve, though single readings can be large or run the other way;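 further: on the % scale 0 is the no-effect control and ±100 the full control effect; nearly all actives have a fitted effect of over 50% in size; the assay follows cell death caused by Vpr and the record does not say whether a fall means rescue or toxicity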
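Fission yeast strain RE007, carrying one chromosomally integrated HIV-1 vpr copy, was seeded at OD 0.01 in PMG+AL medium with 23 nL pinned compound. After 24 h at 30 °C and 99% humidity, viability was read by BacTiter-Glo luminescence.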
NS1 inh: influenza NS1 inhibition; hit rate 0.4% among 270,000; S. cerevisiae slowed by influenza A NS1, growth recovery by OD600; Potency, µM (titrated, usually from 46.1 µM), for the others: top-dose activity, positive = more growth; active means well fitted rising curve with a large enough effect; inconclusive means small, poorly fitted or top-dose-only effect; inactive means no such curve, though single readings can be large or run the other way; further: nearly all actives have a fitted effect of over 50% in size
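In this qHTS, NS1 from influenza A is expressed in budding yeast, where it slows growth. Cells are switched from glucose to 2% galactose medium (pH 6.0, -URA), treated with compound, and growth recovery is read at OD600.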
StopGo reporter: FMDV 2A StopGo reporter, luciferase signal; human cells with a luciferase reporter of 2A StopGo recoding; control for the full effect not named in the record; Potency, µM (highest dose often 57.9 µM), for inactives: at the top dose signal change, negative = less light; hit rate 1.2% among 410,000; AID 1159524; active = well fitted falling curve with a large enough effect; inconclusive = small, poorly fitted or top-dose-only effect; inactive = no such curve, though single readings can be large or run the other way; tested in HEK293T cells; further: on the % scale 0 is the no-effect control and ±100 the full control effect; nearly all actives have a fitted effect of over 45% in size; luciferase light after 4 h
Cruzain noTriton: cruzain (T. cruzi) inhibition without detergent; purified cruzain, Z-FR-AMC fluorescence, no detergent; Potency, µM, inactives show max response, negative = inhibition, actives largely listed as inhibitors; hit rate 2.3% among 200,000; AID 1476;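 further: plate controls were enzyme without inhibitor for no effect and buffer without enzyme for full effect; nearly all actives have a fitted effect of over 40% in size; top concentration of the series not given in the record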
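Detergent-free condition (0.00005% Triton X-100) in acetate buffer pH 5.5 with DTT. 1.5 nM enzyme and compound were pre-mixed 15 min, then 2 uM Z-FR-AMC substrate added; reaction progress from fluorescence change between first and third reads (60 s).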
Lassa entry inh: inhibitors of Lassa virus binding or cell entry; hit rate 1.2% among 300,000; AID 540256; Potency, µM (highest dose often 37.9 µM), inactives show top-dose activity change, negative = inhibition, most hits filed as inhibitors; Lassa virus pseudotype entry inhibition, cell reporter; control for the full effect not named in the record; active means well fitted inhibition curve with a large enough effect; inconclusive means small, poorly fitted or top-dose-only effect, or effect the other way; inactive means flat fitted curve, though single readings scatter; tested in HEK293 cells; further: on the % scale 0 is the no-effect control and ±100 the full control effect; nearly all actives have a fitted effect of over 50% in size; luciferase read-out
* hit, by the source's call; ? = inconclusive; . = not tested or not shown; [ ] = dose if it differs, or a comment. Unless noted, the call rests on the fitted dose curve; in most records, active means well fitted curve in the direction sought with a large enough effect; inconclusive means small, poorly fitted or top-dose-only effect, or another doubt; inactive means no such curve, though single readings can be large; an effect the other way counts as inactive or inconclusive. Potency means the concentration at half of the fitted maximal effect.

Values run as follows: SARS PLpro yeast, Cruzain inh Det, Marburg entry inh, RE007 growth inh, NS1 inh, StopGo reporter, Cruzain noTriton, Lassa entry inh
CN(C)Cc1ccccc1Sc1ccccc1Br
    -11%, 0.4%, 0%, 11%, -14%, -10%, 6%, 15%
NC(N)=NS(=O)(=O)c1ccc(NC(=S)Nc2ccc(F)cc2)cc1
    -1%, ., ., -12%, 6%, 18%, ., .
Cc1ccc(C)c(CN2C(=O)CSc3ccc(C(=O)NCC(C)CN4CCC(C)CC4)cc32)c1 (stereo not given)
    -4%, ., -5%[46.1 µM], 0%, 1%, -15%, ., .
CC(C)CCN(C)C1CCN(S(=O)(=O)c2ccc(F)cc2)CC1
    -2%, 2.3%, ., -3%, -7%, -24%, 9%, .
COc1cc(OC)c(NC(=O)N2CCc3c(sc4c3CCCC4)C2c2ccccc2)cc1Cl (stereo not given)
    ., 0.2%, ., ., ., -3%, 10µM*, -10%[46.1 µM]
Cc1ccccc1NC(=O)CN1C(=O)S/C(=C\c2ccc(-c3cc(C(=O)O)ccc3C)o2)C1=O
    0%, ., 0%[46.1 µM], -19%, 4%, -11%, ., -16%
C=CCN1C(=O)N(c2ccccc2)C(=O)C1CC(=O)Nc1ccc(OC)cc1 (stereo not given)
    6%, ., 0%, 0%, -9%, -20%, ., 8%
CN(c1ccccc1)S(=O)(=O)c1cc(C(=O)OCC(=O)c2c(N)n(C)c(=O)n(C)c2=O)ccc1Cl
    ., ., -12%, -9%, ., -20%, ., -25%
COc1ccc(/C=C/c2c([N+](=O)[O-])c(=O)n(C)c(=O)n2C)c(OC)c1OC
    0%, ., ?, ?, ., ?, ., ?
Cn1c(NCc2ccc(Cl)cc2)nc2ccccc21
    0%, ., ?, 5%, ., 0%, ., -17%
COC(=O)C1C2C=CC3(CN(C4CCCC4)C(=O)C13)O2 (stereo not given)
    -2%, 8.4%, 16%[46.1 µM], -3%, -4%, 15%, -3%, 4%
COc1cc2c(cc1OC)C(C)N(C(=O)c1nccnc1C(=O)O)CC2 (stereo not given)
    -1%, ., ?, 22%, -4%, 7%, ., 9%[46.1 µM]
CCOC(=O)C1=C(C)N2C(=C(C#N)[C@@H]1c1ccc(C(=O)OC)cc1)SC[C@@]2(O)C(C)(C)C
    -15%, -6.5%, ?, -24%, 21%, -29%, 10%, -17%
CCOC(=O)N1CCC(c2cc(=O)n3[nH]c(-c4ccccc4)cc3n2)CC1
    1%, 0.2%, ., -5%, -21%, -18%, -6%, .
COC(=O)c1ccc2c(=O)n(NC(=O)C(c3ccccc3)c3ccccc3)c(=S)[nH]c2c1
    ?, -0.9%, 16%, 11%, 13%, -10%, ?, 2%
Cc1cc(C)nc(SCC(=O)Nc2ccc(N3CCOCC3)c(Cl)c2)n1
    1%, -2.8%, ?, -11%, -13%, ?, 2%, ?
O=C1CCN(C(=O)/C=C/c2ccccc2)c2ccccc21
    -1%, ., 6%[46.1 µM], -3%, -4%, 66%[activator], ., -6%
COc1cc(OC)cc(C(=O)NCc2cc(C)nc3ccccc23)c1
    15%, ., ?, -2%, 1%, ?, ., -2%
Cc1ccc(CN2CCSc3ccc(C(=O)N4CCN(c5cccc(C)c5C)CC4)cc32)cc1
    ., -2.3%, -12%[46.1 µM], ., ., 0%, ?, 5%[46.1 µM]
O=C(NCCCN1CCCC1=O)c1ccc(CNS(=O)(=O)c2ccc(F)cc2)cc1
    5%, 3.6%, 0%, 5%, -6%, -24%, -5%, -5%
Cc1cc(C)n2ncnc2n1
    4%, 1.6%, 0%, -1%[3.69 µM], 2%, 11%, -11%, -11%
N=C(CC1CC(=O)NC(=O)C1)C1=C(O)CCCC1=O
    ?, -1.0%, 3%, 5%, 7%, -9%, -4%, -6%
Cc1ccc(-n2nc(C)c3c(C(=O)NCc4ccccc4)cc(C4CC4)nc32)cc1
    ., -1.5%, ., ., ., 0%, -6%, -5%[46.1 µM]
Cc1cc(OC(=O)N(C)C)nc(-c2ccc(C)c(Cl)c2)n1
    -1%, ., 3%[46.1 µM], -1%, -6%, 25%, ., 28%
COc1ccccc1C(=O)NCc1nnnn1-c1ccc(C)c(C)c1
    ., 4.3%, ., ., ., -6%, 1%, -5%[46.1 µM]
COc1ccc(Cn2c(O)c(C=Nc3c(C)n(C)n(-c4ccccc4)c3=O)c(=O)[nH]c2=O)cc1
    -8%, -7.6%, 5%, -7%, 8%, -27%, ?, -14%
Cc1cc(C)n(C(=O)CNC(=O)C(c2ccccc2)c2ccccc2)n1
    -3%, -0.8%, -3%[46.1 µM], 21%, 3%, -18%, ?, -6%
CC(/C=N/N1CCN(Cc2ccccc2)CC1)=C\c1ccccc1
    2%, ., 10%[46.1 µM], -26%, ., -5%, ., -2%
CC1CC(C)CN(CCOc2ccccc2-c2ccccc2)C1 (stereo not given)
    -21%, -2.5%, ?, -13%, -21%, -12%, -15%, ?
CC(=O)C(Cc1cccc(F)c1)(Cc1cccc(F)c1)C(C)=O
    2%, ., -5%, -4%, -3%, -21%, ., 6%

(list continues)
Values run as follows: SARS PLpro yeast, Cruzain inh Det, Marburg entry inh, RE007 growth inh, NS1 inh, StopGo reporter, Cruzain noTriton, Lassa entry inh
CCOC(=O)C1CCCN(C(=O)c2ccc3c(c2)OCO3)C1 (stereo not given)
    -1%, 2.1%, 2%, 10%, 4%, -18%, 24%, 15%
COc1cccc(OCCNC(=O)c2ccccc2Sc2ccccc2C#N)c1
    20%, -4.4%, ?, 4%, -2%, -21%, -11%, -16%
COc1ccccc1CCCNC(=O)C1CCC(=O)N(CCN2CCOCC2)C1 (stereo not given)
    -5%, ., ., -4%, 1%, 1%, ., .
Cc1cccc(NC(=O)NCc2ccc3c(c2)cc(C)n3C)c1
    -15%, 5.7%, ., 1%, 11µM*, -3%, 7.9µM*, .
Cc1cc(C)c2oc(-c3cccc(NC(=O)c4ccc(-c5cccc([N+](=O)[O-])c5)o4)c3)nc2c1
    ., -0.8%, -21%[46.1 µM], ., ., 2%, 10%, -9%[46.1 µM]
CCOC(=O)C1CC(c2ccccc2)=NNC1=O (stereo not given)
    0%, ., 21%[46.1 µM], 3%, 3%, 0%, ., 0%
O=C(Cc1ccccc1)NCc1ccncc1
    -1%, ., 7%[46.1 µM], -10%, -7%, -4%, ., 13%[46.1 µM]
Cc1ccccc1OCC(=O)Nc1ccc2[nH]ncc2c1
    -4%, ., 19%, 2%, -26%, 42%[activator], ., ?
O=C(O)C1CCCCC1C(=O)NCCc1cccc(Cl)c1 (stereo not given)
    -1%, -1.5%, ?, 22%, -3%, 0%, 12%, 19%
COc1ccccc1CNS(=O)(=O)c1cccc(S(=O)(=O)N2CCOCC2)c1
    -1%, 2.3%, ?, 0%, -10%, 74%[activator], 7%, 0%
COc1cccc(C2c3c(oc4ccc(Cl)cc4c3=O)C(=O)N2c2cc(C)on2)c1OC (stereo not given)
    ?, 1.1%, -13%, 0%, ?, 18%, ?, 9%
Cc1ccc(S(=O)(=O)N2CCCCC2)c2nsnc12
    -1%, ., -17%[46.1 µM], 5%, -1%, -15%, ., -9%[46.1 µM]
Cc1cc2nc(-c3cccc(NC(=O)CSc4ccc(Cl)cc4)c3)oc2cc1C
    ., 0.3%, ?, ., ., 24%, -4%, 3%[46.1 µM]
CCOc1ccc(C2CC(=O)c3c([nH]c(C(=O)OCC4CCCCC4)c3C)C2)cc1 (stereo not given)
    ., -0.4%, -6%[46.1 µM], ., ., -2%, -12%, -10%[46.1 µM]
COc1ccccc1CN(Cc1cc2cc(C)cc(C)c2[nH]c1=O)Cc1nnnn1CC1CCCO1 (stereo not given)
    -5%, -4.3%, 10µM*, 8%, -4%, ., ?, ?
CC(Oc1ccccc1)C(=O)Nc1c2c(nn1-c1ccccc1)CS(=O)(=O)C2 (stereo not given)
    3%, ., -15%, -10%, -10%, -9%, ., -8%
Nc1ccc2nn(-c3ccc(Cl)cc3)nc2c1
    1%, ., ., -12%, 2%, -22%, ., .
COc1ccccc1NC(=O)c1cc(S(=O)(=O)N(C)C2CCCCC2)ccc1F
    ., 0.9%, ., ., ., -20%, -14%, -3%[46.1 µM]
CC(C)c1cccc(OCC(=O)Nc2ccc(S(=O)(=O)Nc3ccccn3)cc2)c1
    0%, ., -9%[46.1 µM], 5%, 1%, 13%, ., ?
C/C(=N\Nc1ccccc1)c1c(O)n(Cc2ccccc2)c(=O)[nH]c1=O
    -1%, -8.0%, -6%, 176%, 10µM*, ?, -29%, ?
COc1ccccc1C(=O)Nc1ccc(S(=O)(=O)Nc2nc(C)cc(C)n2)cc1
    ., -3.6%, -3%[46.1 µM], ., ., 0%, -1%, -4%[46.1 µM]
CCOC(=O)C1CCC(CN(Cc2ccc(Cl)cc2)S(=O)(=O)c2ccc(Br)cc2)CC1 (stereo not given)
    ., 1.2%, ., ., ., -29%, 9%, 6%[46.1 µM]
O=C1OCc2ccc(NC(=O)C3CCCCC3)cc21
    -3%, 10.0%, 4%, -10%, 4%, 11%, -2%, 8%
O=C(NC(Cc1ccccc1)C(=O)O)c1ccccc1 (stereo not given)
    0%, 6.5%, 2%, -5%, 2%, -3%, 1%, 8%
N#Cc1cnc(SCC(=O)NNC(=O)COc2cccc3ccccc23)nc1N
    16%, ?, -2%, 19%, 1%, -23%, -13%, -2%
CCOc1ccc(N(CC)C(=O)c2cn(CC)c(=O)c3cc(OC)c(OC)cc23)cc1
    0%, ., ., -8%, 8%, -25%, ., .
O=C1CCCCCN1CP(=O)(O)CCc1ccccc1
    6%, 5.1%, -4%, 1%, -2%, ., 4%, 3%
O=C(CSc1ncccn1)Nc1ccc(S(=O)(=O)N2CCCCC2)cc1
    -6%, 5.3%, 0%, -17%, 0%, 1%, 4%, -3%
Cc1ccc(S(=O)(=O)n2ccc3c(OCCOCCSCC(NC(=O)OC(C)(C)C)C(=O)O)cccc32)cc1 (stereo not given)
    0%, ., -1%, 18%, 14%, ?, ., 16%
CCOC(=O)c1c(C)n(CCN2CCN(C)CC2)c2ccc(OC)cc12
    -2%, -6.2%, ?, -19%, -1%, -16%, 8%, 8%
